FGF22 binding – binders of human FGF22 protein, primary screen, FGF22 synaptogenesis inhibitor project, biophysical, thermal shift, single point. recombinant FGF22 thermal shift, SYPRO orange fluorescence; percent of sucrose octasulfate shift, DMSO zero. 340,000 compounds, 1.5% hits. Fibroblast growth factor 22 (Homo sapiens), Q9HCT0. calls only at 9.99 µM;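 active means melting point raised past a set limit in the mean and every replicate; three in four hits are not shown here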
MLL AF4-AF9 inh – inhibitors of AF4 peptide binding to AF9, primary screen, biochemical, AlphaScreen, biotin-AF4 peptide, FLAG-AF9, single point; Protein AF-9 (Homo sapiens), P42568; inhibition, % at 10 µM; 350,000 compounds, 0.47% hits; AID 651704, 2012;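 active means every replicate reaching a set inhibition limit, whatever the replicate mean, cut at about 25% in these data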;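 further: 0% = plate neutral control median and 100% = total signal loss; the record names both 10 and 1 µM as test concentration; the first replicate is given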
Target sequence (P42568 whole entry, looked up): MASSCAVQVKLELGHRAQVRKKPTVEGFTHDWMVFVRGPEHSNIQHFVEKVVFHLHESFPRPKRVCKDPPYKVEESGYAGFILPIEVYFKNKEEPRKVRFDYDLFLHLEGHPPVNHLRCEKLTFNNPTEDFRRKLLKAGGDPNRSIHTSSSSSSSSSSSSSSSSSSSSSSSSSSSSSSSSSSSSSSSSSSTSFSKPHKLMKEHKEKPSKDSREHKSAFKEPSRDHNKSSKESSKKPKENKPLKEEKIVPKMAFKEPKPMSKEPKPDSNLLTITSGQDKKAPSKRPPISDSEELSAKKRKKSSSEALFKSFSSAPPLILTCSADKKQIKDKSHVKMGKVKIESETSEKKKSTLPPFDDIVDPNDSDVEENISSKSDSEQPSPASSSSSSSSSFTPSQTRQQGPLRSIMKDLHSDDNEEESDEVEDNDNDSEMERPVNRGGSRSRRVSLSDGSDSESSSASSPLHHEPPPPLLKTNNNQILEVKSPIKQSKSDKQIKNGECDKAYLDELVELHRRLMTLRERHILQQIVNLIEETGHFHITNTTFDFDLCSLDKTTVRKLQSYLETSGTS
rRNA inh HTS – reduced GFP signal of wild-type E. coli, primary screen, bacterial rRNA inhibitor project, GFP/RFP fluorescence, OD600, single point | E. coli WT GFP vs humanized-ribosome RFP mutants, 24 h; stronger effect = lower value; DMSO median 0, no signal -100 | GFP signal change (wild-type ribosome), % (concentration not given with the values) | 350,000 compounds, 1.6% hits | AID 720706, 2013;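 active means significant combined selectivity score with lowered wild-type GFP, culture density cut under 30%, mutant RFP and density less affected; inactive means any of these conditions unmet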; further: one replicate is shown; some compounds called inactive have numbers as strong as hits
Beta apoptosis – inhibitors of cytokine-induced beta cell apoptosis, primary screen, luminescence | INS-1E cytokine-induced death, ATP luminescence, 48 h; percent of positive-control rescue, neutral wells zero | protection from apoptosis, % (no concentration beside the values) | 300,000 compounds, 0.8% hits | AID 435005, 2010;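 active means all replicates at 75% or more, or half of them and the mean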;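 further: 0% = cytokine-treated negative control wells and 100% = positive control rescue; higher means more ATP so stronger rescue from cytokine killing; wells of about 40 µL received 100 nL stock; the first replicate is given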
E coli growth – E. coli growth inhibition, primary screen, OD600; 330,000 compounds, 0.21% hits; Escherichia coli growth, 23 h; stronger effect = lower value; OD600 absorbance (concentration not given with the values); AID 1053175, 2014;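 active means OD600 absorbance below the run mean of sample wells minus 3.6 SD, in any replicate, cut at about 0.56 in these data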;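 further: stock transfer was 300 nL into about 60 µL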
Bfl-1 A1 inh – caspase 3/7 activation in MEF A1-2A-BIM cells, primary screen, A1 inhibitor project, cell-based, luminescence, HTS; 330,000 compounds, 0.066% hits; Caspase-Glo 3/7 luminescence, 3 h; percent of clofoctol response, vehicle zero; caspase activation, % (concentration not given with the values);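 active means over half of replicate activation scores above 10%, or exactly half above 10 with the replicate mean above 10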;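 further: wells of about 30 µL received 50 nL stock; many hits fall short of the cut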
UCH37 inh – inhibitors of human UCH37 deubiquitinase, primary screen, biochemical, Ub-AMC cleavage, fluorescence; purified proteasome/UCH37; 330,000 compounds, 0.33% hits; Ubiquitin carboxyl-terminal hydrolase isozyme L5 (Homo sapiens), Q9Y5K5; inhibition, % (no concentration beside the values);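 active means mean of two replicates above 20%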;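 further: 0% = compound-free wells with enzyme and 100% = wells lacking proteasome; stock transfer was 100 nL into about 20 µL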
Target sequence (Q9Y5K5 whole entry, looked up): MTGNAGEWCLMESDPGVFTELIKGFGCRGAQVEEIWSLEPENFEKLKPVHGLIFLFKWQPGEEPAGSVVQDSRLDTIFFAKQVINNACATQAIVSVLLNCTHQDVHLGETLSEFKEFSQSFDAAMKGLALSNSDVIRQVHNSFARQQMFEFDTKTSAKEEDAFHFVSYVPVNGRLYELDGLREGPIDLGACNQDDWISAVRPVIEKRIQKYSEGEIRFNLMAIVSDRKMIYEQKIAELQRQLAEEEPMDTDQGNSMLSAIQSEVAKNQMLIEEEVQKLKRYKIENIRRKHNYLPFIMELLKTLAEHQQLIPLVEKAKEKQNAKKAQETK
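system = Proteasome-associated human UCH37 deubiquitinase | amount = 0.15 nM proteasome as dispensed | medium = pH 7.4 Tris-HCl (50 mM) with ovalbumin, ATP-MgCl2, DTT | incubation = 30 min preincubation with enzyme, 25 min cleavage at room temperature | detection = AMC fluorescence 355/460 nm | read-out basis = percent inhibition | controls = no-proteasome and no-compound wells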
T cruzi repl – inhibitors of intracellular T. cruzi growth, primary screen, luminescence, NIH3T3 host cells | inhibition, % (test concentration not listed) | 300,000 compounds, 1.4% hits | T. cruzi beta-gal in NIH3T3, 90 h | AID 1885, 2009;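 active means mean inhibition across valid replicates above about 55%, limit read from the data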;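 further: signal also drops with host cell toxicity which is not excluded here; 0% = plate median of DMSO wells and 100% = zero luminescence signal; higher percent means less beta-gal luminescence so fewer parasites; stock transfer was 50 nL into about 50 µL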
rRNA inh HTS OD600 – further read-out of rRNA inh HTS, marked with its call; OD600 change, %; measured here: OD600 growth;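 optical density of the mix in the first replicate; 0 = DMSO median and -100 = no signal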
rRNA inh HTS RFP – further read-out of rRNA inh HTS, marked with its call; RFP signal change, %; measured here: RFP humanized mutant strains;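 first replicate; 0 = DMSO median and -100 = no signal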
Numbers without * were called inactive; i = inactive; nt = no result given; & = joins results of further samples. Not all compounds are listed. The share of hits here may be higher or lower than overall.

No.	structure	FGF22 binding	MLL AF4-AF9 inh	rRNA inh HTS	rRNA inh HTS OD600	rRNA inh HTS RFP	Beta apoptosis	E coli growth	Bfl-1 A1 inh	UCH37 inh	T cruzi repl
1	CCOC(=O)N1CCN(C(=O)CSCC(=O)Nc2nc(-c3ccc(-c4ccccc4)cc3)cs2)CC1	i	-5.7	4	10	-0.1	89*	0.8	-2.5	0.8	21
2	Cc1ccccc1CNS(=O)(=O)c1ccc2c(c1)OCCO2	i	-4.8	1	-4	3.0	nt	0.62	nt	2.0	0
3	CC(C)[C@H](NC(N)=O)C(=O)Nc1cccc(S(=O)(=O)NC2=NCCCCC2)c1	i	-1.8	10	9	-0.6	nt	0.7	nt	1.9	nt
4	CCC1=NN(C(=O)c2ccc(C)cc2)C(O)(c2ccc(Br)cc2)C1 (centres undefined)	nt	nt	nt	nt	nt	nt	0.65	-0.3	6.2	-11
5	CC(=O)Oc1ccc(C(=O)Nc2cccc(C(=O)c3cccc(NC(=O)c4ccc(OC(C)=O)cc4)c3)c2)cc1	nt	nt	nt	nt	nt	3	0.69	0.4	5.5	-7
6	CCc1ccccc1NC(=O)c1sc2nc(C)cc(C)c2c1N	nt	-1.6	1	-10	2.0	nt	0.63	-1.2	-217	39
7	CCOc1ccc(/C=C/C(O)=C2/C(=O)N(C)C3(C)CC2c2ccccc2O3)cc1OC (centres undefined)	nt	0.7	-9	-26	-7.0	0	0.71	0.6	-70	35
8	O=S(=O)(/N=C(/NNS(=O)(=O)c1ccccc1)c1ccccc1)c1ccccc1	i	-1.3	5	-1	-4.1	-3	0.69	-2.1	1.0	0
9	Cc1cc(OCC(O)CN2CCN(C)CC2)ccc1C(C)C (centres undefined)	i	5.1	23	10	3.8	-6	0.68&0.71	1.2	0.4&4.7	26
10	O=C(NCc1nnc(SCC(=O)N2CCC(Cc3ccccc3)CC2)o1)c1ccccc1F	i	-7.2	2	-22	0.0	3	nt	0.2	3.2	24
11	O=C(O)CN1C(=O)C(=O)N(Cc2ccc(C(F)(F)F)cc2)C1=O	i	0.5	14	14	0.1	0	0.67	0.1	3.9	-7
12	Cc1ccc(CSCCNC(=O)CCSc2ccccc2)cc1	nt	nt	nt	nt	nt	-10	0.71	0.3	0.9	-11
13	N#CC(C#N)=C/C=C(\Nc1ccc(Cl)cc1)c1ccc(Cl)cc1	i	1.6	1	2	32	-19	0.63	0.8	-2.9	4
14	O=C(Nc1cccc(-c2cn3ccccc3n2)c1)c1cccs1	i	4.9	6	9	-0.4	5	0.7	-2.9	2.1	-12
15	CS(=O)(=O)N(CC(=O)Nc1ccccc1Sc1ccccc1)c1cccc(Br)c1	nt	nt	nt	nt	nt	-3	0.79	-0.2	2.6	0

Part of the list above, reduced to T cruzi repl:
entry	smiles	T cruzi repl
7	CCOc1ccc(/C=C/C(O)=C2/C(=O)N(C)C3(C)CC2c2ccccc2O3)cc1OC (centres undefined)	35
8	O=S(=O)(/N=C(/NNS(=O)(=O)c1ccccc1)c1ccccc1)c1ccccc1	0

The list goes on:
No.	structure	FGF22 binding	MLL AF4-AF9 inh	rRNA inh HTS	rRNA inh HTS OD600	rRNA inh HTS RFP	Beta apoptosis	E coli growth	Bfl-1 A1 inh	UCH37 inh	T cruzi repl
16	O=C(Cn1nc(Cl)nc1Cl)c1ccc2c(c1)OCCO2	nt	nt	nt	nt	nt	-4	0.63	-0.5	5.1	0
17	CC1(C)Cc2cccc(C(=O)Nc3ccc(Cl)cc3)c2O1	i	-2.1	nt	nt	nt	-3	0.66	0.9	1.9	22
18	Cc1ccc(Cl)cc1NC(=S)N(Cc1ccccc1)Cc1cccnc1	i	1.2	-26*	-15*	-6.0*	-5	0.68	1.2	5.6	76*
19	CN(C(=O)c1sc2nc(N3CCCC3)c3c(c2c1N)CC(C)(C)OC3)c1ccccc1	i	2.4	0	0	-1.4	-2	0.71	1.0	-84	13
20	O=C(CSc1nc2nccnc2c(=O)n1Cc1cccs1)Nc1ccccc1F	i	6.1	-1	-4	-4.0	-4	nt	0.5	nt	16
21	Cn1c(N2CCOCC2)nc(-c2ccccc2)c1-c1ccccc1	nt	nt	nt	nt	nt	5	0.67	0.5	-37	1
22	C/C(=N/NC(=O)CNC(=O)c1ccco1)c1ccco1	i	1.8	8	13	-0.7	-2	nt	0.6	nt	-7
23	Cc1cc(NC(=O)CSc2nnc(-c3ccco3)n2CC2CCCO2)no1 (centres undefined)	nt	nt	nt	nt	nt	4	0.65	-0.1	5.0	-1
24	O=C(CC1C(=O)NCCN1Cc1ccc(-c2ccccc2)cc1)NCc1ccncc1 (centres undefined)	i	2.4	1	-2	0.8	-3	0.74	0.1	3.7	10
25	Cc1ccc(OCCN(C)C)c([N+](=O)[O-])c1	nt	nt	nt	nt	nt	-8	0.73	-0.7	6.1	17
26	Cc1cccc(NC(=O)c2ccccc2O)c1C	i	-2.6	-37	-43	-12	0	0.62	-1.6	-4.5	-3
27	Cc1ccc(C)c(NC(=O)CCN2CCN(C)CC2)c1	i	-9.2	-5	0	-4.0	-3	0.67	0.6	1.9	-13
28	CN(CC(=O)Nc1ccccc1N1CCOCC1)CC(=O)Nc1ccc(F)c(F)c1F	i	-4.4	3	4	-3.5	1	0.65	0.7	4.6	11
29	CN(C)S(=O)(=O)c1cccc(NC(=O)COC(=O)CNC(=O)c2cccc([N+](=O)[O-])c2)c1	i	-6.2	4	15	-3.5	4	0.7	0.7	2.9	-12
30	Nc1ccc2nc(C(F)(F)F)[nH]c2c1	i	0.3	11	8	-1.9	1	0.76	0.9	1.0	8

Reprinted from the part before: 2 compounds, followed by the next part.
No.	structure	FGF22 binding	MLL AF4-AF9 inh	rRNA inh HTS	rRNA inh HTS OD600	rRNA inh HTS RFP	Beta apoptosis	E coli growth	Bfl-1 A1 inh	UCH37 inh	T cruzi repl
29	CN(C)S(=O)(=O)c1cccc(NC(=O)COC(=O)CNC(=O)c2cccc([N+](=O)[O-])c2)c1	i	-6.2	4	15	-3.5	4	0.7	0.7	2.9	-12
30	Nc1ccc2nc(C(F)(F)F)[nH]c2c1	i	0.3	11	8	-1.9	1	0.76	0.9	1.0	8
31	COc1ccc([C@@H]2Sc3ccccc3NC(=O)[C@@H]2O)cc1	i	-1.8	-12	-12	-1.7	-3	0.61	0.4	0.7	-14
32	Nc1ccc(Sc2cnn(-c3ccccc3)c(=O)c2Cl)cc1	nt	nt	nt	nt	nt	-3	0.77	-0.2	-0.1	-4
33	O=C(CSc1nc2c(cnn2-c2ccccc2)c(=O)[nH]1)N1N=C(c2cccs2)CC1c1ccc(F)cc1 (centres undefined)	i	-3.7	5	15	-1.7	1	0.78	-0.4	-54	42
34	CC1CCCN(Cc2ccc(OCc3ccccc3)cc2)C1 (centres undefined)	i	0.0	7	-2	-0.5	2	0.59	0.0	0.3	30
35	Cc1cccn2c(=O)c3cc(C(=O)NC4CCCCC4)c(=N)n(Cc4ccccc4)c3nc12	i	-1.9	9	1	3.9	12	0.69	-0.9	i	58*
36	NC(=O)CSc1nnc(-c2ccc(S(=O)(=O)N3CCCC3)cc2)n1CC1CCCO1 (centres undefined)	nt	nt	nt	nt	nt	-2	0.67	-0.8	0.7	-5
37	COc1ccc(S(=O)(=O)NCc2ccccn2)cc1	i	2.3	29	18	-1.6	-9	0.7	0.5	4.4	-21
38	CN(C)CCCN(C(=O)c1cc2ccccc2oc1=O)c1nc2ccc(F)cc2s1	nt	nt	nt	nt	nt	-5	0.71	0.3	2.7	44
39	Cc1ccc2c(c1)N(CC(=O)NCC1CCCO1)C(=O)CO2 (centres undefined)	i	-1.6	9	4	-2.3	1	0.69	0.1	-0.4	-8
40	CCC(=O)Nc1cccc(C(=O)OCc2cccc([N+](=O)[O-])c2)c1	i	2.6	-3	-12	-2.7	nt	0.72	nt	2.5	-27
41	O=C(CSc1cccc2cccnc12)N/N=C/c1cccnc1	i	5.6	-7	-11	5.2	23	nt	-0.7	nt	65*
42	Cc1cc2c(=O)n(C)c(SCC(=O)NC3CCCC3)nc2s1	i	-1.0	13	4	1.6	-1	0.68	0.6	3.5	-1
43	O=[N+]([O-])c1ccc(/C=N/n2cnc3ccccc32)s1	i	-0.2	0	8	6.0	112*	nt	-0.3	nt	73*
44	CCN(CC)C(=O)Cn1nc(-c2ccccc2O)nc1SCC(=O)Nc1ccc(OC)cc1	i	0.0	9	12	-2.1	0	0.71	0.1	6.5	32
45	Cc1cccc(Nc2ccc([N+](=O)[O-])cn2)c1	i	5.7	-8	-16	7.2	2	0.68	0.3	5.9	4
46	CN1CCN(C2Cc3cc(Cl)ccc3Sc3cc(F)ccc32)CC1 (centres undefined)	i	17	-51	-55	-14	nt	0.61	1.2	4.9	46
47	O=C(Nc1ccc(Cl)c([N+](=O)[O-])c1)c1ccc(NCCCN2CCOCC2)c([N+](=O)[O-])c1	nt	nt	nt	nt	nt	12	0.69	-0.6	4.6	55*
48	CCOc1ccc(Nc2oc(-c3cccc(Cl)c3)nc2C#N)cc1	nt	nt	nt	nt	nt	6	0.75	-0.2	-205	-6
49	Cc1ccc(CSc2ccc(S(=O)(=O)N3CCCC3)cn2)cc1	i	-1.1	nt	nt	nt	-6	0.69	0.9	1.3	nt

Reprinted at random: two records from the list.
No.	structure	FGF22 binding	MLL AF4-AF9 inh	rRNA inh HTS	rRNA inh HTS OD600	rRNA inh HTS RFP	Beta apoptosis	E coli growth	Bfl-1 A1 inh	UCH37 inh	T cruzi repl
49	Cc1ccc(CSc2ccc(S(=O)(=O)N3CCCC3)cn2)cc1	i	-1.1	nt	nt	nt	-6	0.69	0.9	1.3	nt
47	O=C(Nc1ccc(Cl)c([N+](=O)[O-])c1)c1ccc(NCCCN2CCOCC2)c([N+](=O)[O-])c1	nt	nt	nt	nt	nt	12	0.69	-0.6	4.6	55*
